# Screens from PubChem BioAssay.
# CSC inhib – cancer stem cell inhibition | cancer stem cell-like cells viability, luminescence | inhibition, % at 7.5 µM | 1.1% of 300,000 active | AID 2717;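 active = mean at 75% or more and at least half the replicates too; inconclusive = mean and replicates disagree; tested in HMLE shEcad cells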;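 also: 0% = median of negative and 100% = median of positive control wells; the first replicate is given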
# HIV Env fusion – blocks HIV Env-driven cell-cell fusion | HeLa-JRFL Env/CEM21 cell fusion, luciferase | inhibition, % at 12.3 µM | 1.1% of 360,000 active;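 active = mean replicate inhibition score of at least 50 and every replicate individually at or above 50; inconclusive = only one of the two criteria met; inactive = mean below 50 and not all replicates reaching 50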;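 also: 0% = plate neutral controls and 100% = maraviroc near 300 nM; one replicate is shown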
# Rce1 inh – yeast Ras-converting enzyme inhibition; Q03530; yeast membranes, quenched prenylated peptide cleavage fluorescence; calls only; 0.27% of 290,000 active; AID 2563;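 active = fall in fluorescence gain of 50% or more versus controls, with final raw signal at or below 3038400; inconclusive = same 50% fall but final raw signal above 3038400; inactive = fall in fluorescence gain under 50%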;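 also: plate controls were neutral control wells for no effect and wells lacking membranes for full effect; tested at 10 µM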
# UUG fidelity – yeast start codon fidelity modulation | S. cerevisiae UUG-firefly luciferase reporter, luminescence/redox ratio | 0.13% of 350,000 active | AID 602363 | activity score, % at 18.7 µM;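 active = replicate mean at a twofold rise or more, about +100% in these data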;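 also: firefly luciferase made from a UUG start codon reports start codon fidelity; reporter light over untreated wells divided by growth signal over untreated wells; some hits fall short of that in this replicate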
# PABP polyA inh – blocks human PABP binding to poly(A) RNA; fluorescence polarization; 1% of 290,000 active; inhibition, % at 35 µM; AID 2014; P11940;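 active = 50% or more with normal probe brightness, or confirmed in later tests; inconclusive = above 50% with abnormal brightness, or retests that disagree; inactive = below 50% or failed in later tests; about a fifth of its hits are not listed in these tables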;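 also: calls also rest on retests at 20 µM and on dose response follow-up; controls were probe without protein and protein plus probe with vehicle; some compounds called inactive have numbers as strong as hits; many hits fall short of the cut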
# Target sequence (P11940 whole entry, looked up): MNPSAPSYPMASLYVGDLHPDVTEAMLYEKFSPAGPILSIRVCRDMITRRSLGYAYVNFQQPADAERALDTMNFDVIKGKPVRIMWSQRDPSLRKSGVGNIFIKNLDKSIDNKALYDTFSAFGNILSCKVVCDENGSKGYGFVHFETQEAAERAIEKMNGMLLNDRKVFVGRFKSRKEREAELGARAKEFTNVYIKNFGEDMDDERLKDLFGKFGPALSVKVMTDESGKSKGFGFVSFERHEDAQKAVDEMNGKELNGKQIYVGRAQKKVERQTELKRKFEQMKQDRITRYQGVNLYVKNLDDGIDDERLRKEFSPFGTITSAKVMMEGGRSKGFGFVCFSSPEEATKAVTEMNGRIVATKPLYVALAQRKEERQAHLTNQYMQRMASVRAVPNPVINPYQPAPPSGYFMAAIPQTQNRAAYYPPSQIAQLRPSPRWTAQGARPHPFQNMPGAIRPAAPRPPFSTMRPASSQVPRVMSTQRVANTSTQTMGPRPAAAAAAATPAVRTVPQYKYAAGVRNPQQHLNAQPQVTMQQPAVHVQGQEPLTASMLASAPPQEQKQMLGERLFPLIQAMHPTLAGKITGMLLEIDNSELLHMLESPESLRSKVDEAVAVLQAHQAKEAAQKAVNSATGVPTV
# eIF4H inh – inhibitors of RNA binding by human eIF4H. Q15056. eIF4H fluorescence polarization binding assay. inhibition, % at 35 µM. 0.94% of 290,000 active. AID 2012;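 active = 50% or more with normal probe brightness, or confirmed in later tests; inconclusive = above 50% with abnormal brightness, or retests that disagree; inactive = below 50% or failed in later tests; about a fifth of its hits are not listed in these tables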;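 also: calls also rest on retests at 20 µM and on dose response follow-up; 0% = protein and probe with vehicle and 100% = probe without protein; strong numbers were not always called active; many hits fall short of the cut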
# MT1-MMP act inh – blocks activation of human MT1-MMP; AID 651647; GFP/RFP ratio change, % at 20 µM; HT1080 RFP-PRO-GFP cells, GFP/RFP ratio fluorescence, overnight; percent of plate control window, DMSO zero; 0.061% of 360,000 active; P50281;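 active = GFP/RFP ratio change of at least 30% with cell ATP level not reduced by more than half and red fluorescence within 50% of control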; also: strong numbers were not always called active
#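 system = RFP-PRO-GFP reporter HT1080 cells | dosing = 20 µM single dose, 1% DMSO | timing = overnight cell settling, then overnight compound exposure, 37 °C, 5% CO2 | read-out basis = GFP/RFP fluorescence ratio | controls = DMSO and RFP-L50D-GFP cell wells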
# eIF4H inh retest – also measured in eIF4H inh; calls as there; inhibition, %; compound at 20 µM; confirmation average;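 mean of two retest wells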
# PABP polyA inh retest – further read-out of PABP polyA inh, marked with its call; inhibition, %; compound at 20 µM; confirmation repeats;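 mean of two retest wells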
# MT1-MMP act inh RFP – second read-out of MT1-MMP act inh, no call of its own (marks repeat the call); RFP signal change, %; measured here: RFP expression control read;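 0 = vehicle wells; hits needed this value within 50% of zero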
# * marks the source's active call; other numbers are inactive results; i = inactive; ? = inconclusive; nt = no result given.
SMILES,CSC inhib,HIV Env fusion,Rce1 inh,UUG fidelity,PABP polyA inh,eIF4H inh,MT1-MMP act inh,MT1-MMP act inh RFP,others
COc1ccc(C(=O)Nc2ccccc2N2CCCC2)cc1,-12,-1,i,-11,2,-2,-2,2,
Oc1ccccc1CN(Cc1ccco1)CC(O)COCc1ccc(Cl)cc1 (stereo not given),25,-7,i,3,-4,-1,-3,-7,
Cc1ccn2c(C(=O)NNC(=O)Nc3ccc(Cl)cc3)c(C)nc2c1,8,-11,i,-4,-14,-1,-2,-2,
O=C(Cc1c(F)cccc1Cl)Nc1ccc(S(=O)(=O)NCC2CCCO2)cc1 (stereo not given),0,0,i,nt,-2,-6,0,0,
COc1ccccc1-n1c(SCC(=O)Nc2ccc3c(c2)OCO3)nc2c(c1=O)SCC2,-1,-34,i,nt,-1,-10,3,0,
O=[N+]([O-])/C(=C\Nc1ccccc1)S(=O)(=O)c1ccccc1,6,nt,i,-11,7,-9,1,4,
CCOc1ccc(N(CC(=O)N/N=C/c2cc([N+](=O)[O-])ccc2Cl)S(C)(=O)=O)cc1,16,nt,i,6,-9,6,2,-6,
c1ccc2c(c1)oc1c(N3CCN(Cc4ccc5c(c4)OCO5)CC3)ncnc12,nt,-59,i,-8,-6,5,3,-14,
CSc1ccccc1C(=O)Nc1ccc(C)c(C)c1,nt,-105,i,nt,-1,-12,2,-1,
CCOC(=O)C1(CC2CC2)CCN(C(=O)c2cccnc2C)CC1,-5,-3,nt,-29,-7,-6,-10,1,
O=C(CSc1nc2nc3c(cc2c(=O)n1-c1ccccc1)CCCC3)Nc1cccc2ccccc12,2,nt,i,-12,3,-8,5,2,
COc1ccc(N=C2SC(C(=O)Nc3ccc(F)cc3)CC(=O)N2C)cc1 (stereo not given),4,-9,i,nt,1,6,6,-1,
CN(C)CCC(=O)c1ccc(F)cc1,11,-8,i,-6,11,3,3,7,
Cc1[nH]c(=S)[nH]c(=O)c1CCCO,-14,22,i,nt,-1,8,-2,2,
CC(C)C[C@H]1COCCS(=O)(=O)N1Cc1ccccc1F,nt,9,i,-7,nt,nt,3,-3,
COC(=O)c1ccccc1NC(=O)CN(C1CCCCC1)S(C)(=O)=O,-21,-118,i,-7,-7,-6,0,0,
CC[C@]12c3[nH]c4ccccc4c3CCN1C(=O)C(CC(=O)NCC13CC4CC(CC(C4)C1)C3)C[C@@H]2C(=O)N1CCN(C(=O)C2CC2)CC1 (stereo not given in full),8,100*,nt,-4,nt,nt,2,-5,
COC(=O)CNC(=O)CNC(=O)Nc1ccccc1,-18,-8,i,-14,-6,3,3,5,
CSCc1ccc(C(=O)N2CCC(CCC(=O)N(C)Cc3ccccc3)CC2)o1,-10,nt,i,-22,-10,7,1,1,
CCN(C[C@H]1N[C@@](Cc2ccccc2)(C(=O)OC)[C@H]2C(=O)N(Cc3ccccc3)C(=O)[C@@H]12)C(=O)COC,nt,-28,nt,-10,nt,nt,0,0,
COc1ccc(S(=O)(=O)N2CCCCCC2)cc1C(=O)N(C)Cc1ccc(C)cc1,2,4,i,-15,nt,nt,1,-6,
O=C(NC(=S)NC1CCCCC1)c1ccc(F)cc1,13,-37,i,-26,7,-4,0,-1,
CC(C)N1CCC(N2CCN(Cc3ccc(-c4ccccc4Cl)o3)CC2CCO)CC1 (stereo not given),32,9,i,5,16,0,1,0,
O=C(CNC(=O)[C@@H]1Cc2ccccc2CN1)NC1CCCCC1,-14,-1,i,-5,-1,-4,-3,1,
CCOCCCn1c(SCC(=O)NC(C)C)nc2ccccc2c1=O,-9,-25,i,-3,5,61,1,0,eIF4H inh retest=2;PABP polyA inh retest=-1
COc1ccc(N2CCN(C(=O)CCCC(=O)c3ccccc3)CC2)cc1,nt,6,i,9,-10,0,1,1,
O=c1[nH]cnc2c1ncn2[C@@H]1O[C@H](COS(=O)(=O)O)[C@@H](O)[C@H]1O,17,29,nt,-18,nt,nt,-1,-2,
CCc1c(C)c2cc(Cl)c(O)c(CN(C)C)c2oc1=O,-8,nt,?,nt,4,-6,5,5,
COC(=O)C(NC(=O)c1ccco1)(Nc1nc(C)cs1)C(F)(F)F (stereo not given),-1,nt,i,-30,7,-9,1,4,
Cc1cccc(NC(=O)CSc2ccc(-c3ccco3)nn2)c1C,3,13,i,-12,15*,78*,3,8,eIF4H inh retest=100*;PABP polyA inh retest=82*

# Ordered by number of heavy atoms (rising): ten of the compounds above
SMILES,CSC inhib,HIV Env fusion,Rce1 inh,UUG fidelity,PABP polyA inh,eIF4H inh,MT1-MMP act inh,MT1-MMP act inh RFP,others
COC(=O)CNC(=O)CNC(=O)Nc1ccccc1,-18,-8,i,-14,-6,3,3,5,
CCc1c(C)c2cc(Cl)c(O)c(CN(C)C)c2oc1=O,-8,nt,?,nt,4,-6,5,5,
O=C(CNC(=O)[C@@H]1Cc2ccccc2CN1)NC1CCCCC1,-14,-1,i,-5,-1,-4,-3,1,
COC(=O)C(NC(=O)c1ccco1)(Nc1nc(C)cs1)C(F)(F)F (stereo not given),-1,nt,i,-30,7,-9,1,4,
CCOCCCn1c(SCC(=O)NC(C)C)nc2ccccc2c1=O,-9,-25,i,-3,5,61,1,0,eIF4H inh retest=2;PABP polyA inh retest=-1
COc1ccc(N2CCN(C(=O)CCCC(=O)c3ccccc3)CC2)cc1,nt,6,i,9,-10,0,1,1,
CSCc1ccc(C(=O)N2CCC(CCC(=O)N(C)Cc3ccccc3)CC2)o1,-10,nt,i,-22,-10,7,1,1,
COc1ccc(S(=O)(=O)N2CCCCCC2)cc1C(=O)N(C)Cc1ccc(C)cc1,2,4,i,-15,nt,nt,1,-6,
CC(C)N1CCC(N2CCN(Cc3ccc(-c4ccccc4Cl)o3)CC2CCO)CC1 (stereo not given),32,9,i,5,16,0,1,0,
CCN(C[C@H]1N[C@@](Cc2ccccc2)(C(=O)OC)[C@H]2C(=O)N(Cc3ccccc3)C(=O)[C@@H]12)C(=O)COC,nt,-28,nt,-10,nt,nt,0,0,

# Additional records follow.
SMILES,CSC inhib,HIV Env fusion,Rce1 inh,UUG fidelity,PABP polyA inh,eIF4H inh,MT1-MMP act inh,MT1-MMP act inh RFP,others
CCOC(=O)c1ccc(NC(=O)c2cn(-c3ccccc3)nc2-c2ccncc2)cc1,1,nt,i,nt,3,-4,-1,-10,
CN(CC(=O)Nc1cc(S(=O)(=O)N2CCOCC2)ccc1Cl)C1CCS(=O)(=O)C1 (stereo not given),5,7,i,nt,84,-3,2,5,eIF4H inh retest=-9;PABP polyA inh retest=13
Cc1cc(C)c(NC(=S)N(CCCN2CCOCC2)Cc2cccnc2)c(C)c1,-2,1,i,-3,3,7,2,5,
Cc1cc(C)c2sc(N(CCN(C)C)C(=O)c3c(F)cccc3F)nc2c1,7,14,i,5,-6,-7,2,4,
Cc1nn(Cc2ccccc2)c(C)c1/C=N/NC(=O)c1ccncc1,6,15,i,-26,-3,-4,7,-7,
CCOc1ncccc1C(=O)NCC1COc2ccccc2O1 (stereo not given),26,-16,i,3,-4,-4,5,2,
CCOC(=O)C1=C(COC(=O)C2(C)CC2(Cl)Cl)NC(=O)NC1c1ccc(OC)cc1 (stereo not given),-2,4,i,nt,20,9,0,-6,
COc1cccc(C(=O)Nc2ccc3c(c2)CCCN3C(=O)c2cccs2)c1OC,30,11,i,-2,-5,-3,4,-5,
C/C(=N\n1cnnc1)c1ccccc1,-12,-7,i,nt,2,-11,-4,1,
COc1cc(C(=O)NNC(=S)NC(=O)c2ccc3c(c2)OCO3)cc(OC)c1OC,57,16,i,-25,-7,5,2,-3,
O=C(NCc1cc2ccccc2[nH]1)C1CCC(=O)N(CC2CCCCC2)C1 (stereo not given),nt,-6,nt,-4,nt,nt,-1,5,
Cc1ccc(NNC(=O)C(=O)N2CCCCC2)cc1,112*,-31,i,nt,-1,6,-1,4,
COc1cc(C(=O)OCC(=O)NC(=O)NC2CCCCC2)cc(Cl)c1OC,10,-24,i,6,nt,nt,0,0,
COc1ccccc1OCC(=O)NNC(=O)c1c(-c2ccccc2Cl)noc1C,-3,-2,i,nt,-9,2,0,3,
O=C(CCSc1ccccc1)NCCSc1ccccn1,13,-70,i,-9,-3,6,-2,1,
Cc1ccc2[nH]c(=O)c(CN(Cc3ccco3)C(=O)c3cccs3)cc2c1,nt,nt,i,nt,7,0,nt,nt,
CCOC(=O)c1ccccc1NC(=O)COC(=O)c1ccc(C)c(S(=O)(=O)N2CCOCC2)c1,-2,nt,i,nt,-14,-14,4,4,
CCOC(=O)c1ccc(Nc2ncccc2[N+](=O)[O-])cc1,0,-81,i,-3,5,-4,10,9,
O=C(NCC(c1ccco1)N1CCCCC1)c1cccc(S(=O)(=O)Nc2ccccc2Cl)c1 (stereo not given),4,2,i,-12,6,0,5,1,
CC(C)(CN1CCOCC1)NS(=O)(=O)c1ccccc1,-13,-8,i,-7,7,1,2,4,
CCN(CC)C(=O)C1=C(C)NC(=S)NC1c1cccs1 (stereo not given),-17,-9,i,nt,8,-7,-2,4,
CCOC(=O)CNC(=O)N1CCCC(Cc2ccccc2)(C(=O)OCC)C1 (stereo not given),9,5,i,6,nt,nt,-2,0,
CC(C(=O)NC1CCCC1)N(C(=O)CS(=O)CC(=O)Nc1ccc(F)cc1)c1ccc2c(c1)OCCO2 (stereo not given),-9,24,i,10,?,?,1,2,
Cc1nc(COc2ccc(C(=O)NCc3ccccc3CN3CCCCC3)cc2)cs1,10,nt,nt,-4,nt,nt,2,6,
CCOC(=O)N1C(=O)[C@](CC)(c2ccccc2)N1C(=O)OCC,17,27,i,4,5,3,2,2,
CCCNC(=O)C1(C)CCN(C(=O)c2ccccc2OC(F)(F)F)C1 (stereo not given),nt,-12,nt,-1,nt,nt,1,4,
CN(C)S(=O)(=O)N1CCC(Oc2cccc(C(=O)NCCC3=CCCCC3)c2)CC1,3,41,i,8,-12,-4,-2,-26,
O=C(CCC(=O)c1cccs1)NC1CCCCCC1,-10,-7,i,-9,-3,-6,1,6,
O=C(NCCc1nc2ccccc2[nH]1)c1ccc([N+](=O)[O-])cc1,-7,-14,i,nt,5,-4,0,-1,
CCOC(=O)[C@@H]1[C@H]2COc3ccccc3[C@H]2N2C(=O)N(c3ccc(Cl)cc3)C(=O)[C@]12C,-15,30,i,-8,-3,-14,5,-2,
O=C(c1ccccc1F)N1CCC2CC1c1cc(N3CCCCC3)ccc12 (stereo not given),nt,-122,nt,3,nt,nt,-2,-4,
CN=C1S/C(=C\c2cc(C)n(-c3ccccc3F)c2C)C(=O)N1C,16,i,i,-43,-3,2,-5,-8,
CCOc1ncccc1C(=O)NCCc1c[nH]c2ccccc12,7,32,i,-11,4,-13,-1,-2,
O=C(CNC(=O)C(c1ccccc1)c1ccccc1)OCc1ccccc1,nt,14,i,-11,3,0,1,0,
O=C1N[C@@H](Cc2ccccc2)C(=O)N2[C@H]1C[C@]1(Br)c3ccccc3N(S(=O)(=O)c3ccc(F)cc3)[C@H]21,8,11,i,-16,nt,nt,-1,2,
COc1ccc(C(=O)CCC(=O)N2CCN(c3ccc(C)cc3)C(C)C2)cc1 (stereo not given),6,5,i,14,-9,-20,2,-1,

# Looked up one by one from the list above (2):
SMILES,CSC inhib,HIV Env fusion,Rce1 inh,UUG fidelity,PABP polyA inh,eIF4H inh,MT1-MMP act inh,MT1-MMP act inh RFP,others
CCOc1ncccc1C(=O)NCCc1c[nH]c2ccccc12,7,32,i,-11,4,-13,-1,-2,
O=C(c1ccccc1F)N1CCC2CC1c1cc(N3CCCCC3)ccc12 (stereo not given),nt,-122,nt,3,nt,nt,-2,-4,

# Some of the compounds tested. The share of hits here may be higher or lower than overall.
